# From PubChem BioAssay
# Calb biofilm kill – mixtures killing C. albicans biofilm. C. albicans biofilm persisters + clotrimazole, fluorescence viability; primary screen in compound mixtures of four per well. inhibition, % at 7.6 µM. 120,000 compounds, 0.02% hits. AID 1242;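 active means inhibition above 30.3% in the primary screen of four-compound pools, then above 30% when the compound was retested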;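 further: compounds exposed to preformed 24 h biofilms for 48 h; the number belongs to the whole pool; some results filed as inactive read as strong as hits; inactives centre near 12; 0% = biofilm with clotrimazole alone and 100% = kill control; retested singly at about 60 µM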
#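 Incubation: 24 h biofilm formation, then 48 h compound exposure, 37 °C | Material: C. albicans biofilms | Buffer or medium: RPMI/MOPS medium, pH 7.0 | Measured by: 2-h Alamar Blue fluorescence, 535/590 nm excitation/emission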
# * hit, by the source's call. Not all compounds are listed; the hit share may differ from the screen's.
No.	structure	Calb biofilm kill
1	CC1CN(C(=O)c2ccccc2NS(=O)(=O)c2cccc([N+](=O)[O-])c2)CC(C)O1 (stereo unspecified)	19
2	Clc1nc(CN2CCCCC2)nc2sc3c(c12)CCC3	-5
3	OCCC1CN(Cc2ccc(C(F)(F)F)cc2)CCN1Cc1ccccc1 (stereo unspecified)	18
4	COc1ccc(NC(=O)Nc2ccc(C(=O)N3CCOCC3)cc2)c(OC)c1	10
5	C/C(Cc1ccccc1)=N/NC(=O)CCCC(=O)N/N=C(/C)Cc1ccccc1	0
6	COc1c(O)cc2oc(-c3ccc(O)cc3)cc(=O)c2c1O	17
7	O=C(CSc1nn(-c2ccc(Cl)cc2)c(=S)s1)NCC1CCCO1 (stereo unspecified)	11
8	CC(=O)N/C(=C\c1cccc([N+](=O)[O-])c1)C(=O)NC(C)C	10
9	COc1ccc(-n2c(C)cc(C(=O)COC(=O)Cc3n[nH]c(=O)c4ccccc34)c2C)cc1	12
10	Cc1nc(C(=O)NC2CC2)sc1C1(C)CC(c2ccccc2)=NO1 (stereo unspecified)	3
11	CC(C)Cn1c(O)c(/C=C2\C=NN=C2c2ccccc2)sc1=S	13
12	Cc1ccc(NC2CC(C)NC(=S)N2)cc1 (stereo unspecified)	5
13	Cc1ccc2oc(-c3cccc(NC(=O)c4cc(-n5cnnc5)ccc4Cl)c3)nc2c1	14
14	NC(=O)NNc1cccc(Cl)n1	5
15	CCCCCCn1c(COc2ccccc2F)nnc1SCC(=O)c1c(N)n(C)c(=O)n(C)c1=O	14
16	COc1ccc(C(=O)NCCSC2CCCCC2)cc1	22
17	OCCNCc1cc(Br)ccc1OCc1ccc(Cl)cc1Cl	15
18	CCOC(=O)c1cc2c(ccn2C)n1CC(=O)N(C)C	20
19	Cc1cccc(NC(=O)Cn2cnc3c(oc4nc5c(cc43)COC(C)(C)C5)c2=O)c1	8
20	O=C(COC(=O)CCc1nc2ccccc2c(=O)[nH]1)Nc1ccc(Cl)cn1	6
21	Cc1cc2c(cc1C)CN(c1ccccc1)C2	24
22	CCN1CCN(CCOc2cccc(Oc3ccccc3)c2)CC1	4
23	Cc1cc(=O)[nH]c2c(N=Nc3ccc(O)cc3)c(N)nn12	1
24	COc1cc([N+](=O)[O-])cc(/C=N/NC(=O)c2cccnc2)c1O	15
25	COc1ccc(NC(=O)COc2nsnc2N2CCOCC2)cc1	16

# Sorted by SMILES length (ascending): part of the list above
No.	structure	Calb biofilm kill
14	NC(=O)NNc1cccc(Cl)n1	5
22	CCN1CCN(CCOc2cccc(Oc3ccccc3)c2)CC1	4
3	OCCC1CN(Cc2ccc(C(F)(F)F)cc2)CCN1Cc1ccccc1 (stereo unspecified)	18
7	O=C(CSc1nn(-c2ccc(Cl)cc2)c(=S)s1)NCC1CCCO1 (stereo unspecified)	11
5	C/C(Cc1ccccc1)=N/NC(=O)CCCC(=O)N/N=C(/C)Cc1ccccc1	0
19	Cc1cccc(NC(=O)Cn2cnc3c(oc4nc5c(cc43)COC(C)(C)C5)c2=O)c1	8

# Following part
No.	structure	Calb biofilm kill
26	O=C(CNC(=S)N(Cc1ccc(F)cc1)C1CCCCC1)NCCN1CCOCC1	1
27	COc1ccccc1NC(=O)Nc1ccccc1N1CCOCC1	0
28	O=C(Nc1ccccc1)c1ccc(NCCc2ccccc2)c([N+](=O)[O-])c1	8
29	COc1ccc(C(O)(c2ccccc2OC)C(CN2CCOCC2)c2ccccc2)cc1 (stereo unspecified)	10
30	NC(C(=O)O)C(c1ccccc1)C(F)F (stereo unspecified)	15
31	CC(C)c1ccc(Nc2nnc(SC3CCOC3=O)s2)cc1 (stereo unspecified)	7
32	COc1ccc(-n2c(O)c(/C=N/NS(=O)(=O)c3cc(C)ccc3C)c3ccccc3c2=O)cc1OC	9
33	COCCn1nnnc1SCC(=O)Nc1ccc2c(c1)OCO2	19
34	Cc1nc(C(F)(F)F)c(C(=O)N/N=C(\N)c2ccccn2)s1	6
35	COc1ccccc1/C=C/C(=O)Nc1cccc(C(C)=O)c1	7
36	COc1ccc(CCN2C(=O)C3C4C=CC(C5CC45)C3C2=O)cc1OC (stereo unspecified)	28
37	O=c1[nH]ncc(N2CCCCCC2)c1Cl	17
38	CC(C)CC(=O)NC(NC(=S)Nc1ccccc1)C(Cl)(Cl)Cl (stereo unspecified)	7
39	CCOc1ccc(/C=C(/NC(=O)c2ccccc2Cl)C(=O)O)cc1	9
40	CCOc1ccc(/C=C(\C(=O)O)c2ccc(S(=O)(=O)N3CCOCC3)s2)cc1OC	18
41	Cc1ccccc1OCC(=O)NNC(=O)CCN1C(=O)c2ccccc2C1=O	10
42	COc1ccc(Nc2ccc(S(=O)(=O)N3CCCCC3)cc2[N+](=O)[O-])cc1	22
43	O=C(NCCCn1ccnc1)c1nn2c(C(F)(F)F)cc(-c3ccc(Br)cc3)nc2c1Cl	16
44	Cc1ccc(/C=N/NC(=O)CN2CCN(S(=O)(=O)c3ccc(Br)cc3)CC2)s1	19
45	CCn1c(SCC(=O)Nc2ccc3c(c2)OCO3)nc2ccccc21	7
46	CCOC(=O)c1nnn(-c2nc(N(C)C)nc(N(C)C)n2)c1C	12
47	N#Cc1ccccc1NC(=O)C1CC(=O)N(c2ccc3c4c(cccc24)CC3)C1 (stereo unspecified)	14
48	O=C(O)Cc1ccc(NS(=O)(=O)c2ccccc2Cl)cc1	-2
49	CCOc1ccc(C(=O)Nc2cccc(C(C)=O)c2)cc1[N+](=O)[O-]	14
50	S=c1[nH]nc(-c2cccc(Cl)c2)n1/N=C/c1ccco1	24
51	CC(C)(C)NC(=O)N1CCn2cccc2C1c1ccccc1F (stereo unspecified)	0
52	COCCNc1nc(-c2cc(C)n(CCc3ccc(OC)cc3)c2C)cs1	15
53	O=C(O)CNS(=O)(=O)c1cccc(Cl)c1	10
54	COc1cccc(CN2CCNC(=O)C2CC(=O)NCCOc2cccnc2)c1OC (stereo unspecified)	13
55	COc1cccc(-n2c(CN3CCN(c4ccc(C)cc4)C(C)C3)nc3ccc([N+](=O)[O-])cc3c2=O)c1 (stereo unspecified)	15
56	CC1=NN(c2cccc([N+](=O)[O-])c2)C(=O)C1	25
57	Cc1ccc2cc3c(nc2c1)OCC3	12
58	C=CCc1cc(Cl)ccc1OCCOCCNC(C)(C)C	2
59	Cc1ccc(-c2cn3c(n2)SCC3)cc1	8
60	COc1cc(C(C(=O)NC2CCCCC2)N(CCN2CCOCC2)C(=O)C2COc3ccccc3O2)cc(OC)c1OC (stereo unspecified)	52
61	CCC1S/C(=N/N=C/c2ccco2)NC1=O (stereo unspecified)	14
62	O=c1c2ccccc2cnn1Cc1n[nH]c(=S)n1-c1ccc(F)cc1	2
63	CCOc1ccc(/C(O)=C2/C(=O)C(=O)N(c3ncccn3)C2c2ccc(Cl)cc2)cc1 (stereo unspecified)	18
64	Cc1noc(C)c1CN(C(=S)NC1CC1)c1ccccc1	-8
65	Cc1nc(N)ncc1Sc1ccc(Cl)cc1	15
66	COc1ccc([N+](=O)[O-])cc1NC(=O)CSCc1ccc(Br)cc1	11
67	CCN(CC)CCn1c2ccccc2c2nc3ccc([N+](=O)[O-])cc3cc21	14
68	Cc1ccc(N=Nc2c(O)c3ccccc3[nH]c2=O)c(S(=O)(=O)N(C)C)c1	20
69	CCOc1ccc(OCC)c(NC(=O)CSc2nc3cccnc3n2C)c1	21
70	CCN(C(=O)COc1ncnc2sccc12)c1ccccc1	-6
71	CCOc1cccc(C(=O)Nc2cccc(C(=O)NCC(C)C)c2)c1	26
72	Cc1ccc(OCC(=O)N2CCN(C(=O)c3cccc(F)c3)CC2)cc1	16
73	CCCc1nnc(SCC(=O)N2CCOCC2)n1C	6
74	COc1cc2cc(Oc3ccc4ccc(=O)oc4c3)c(=O)oc2cc1OC1OC(COC(=O)CC(C)(O)CC(=O)O)C(O)C(O)C1O (stereo unspecified)	11
75	CCCCc1ccc(NC(=O)C(=O)NCCN2CCN(Cc3ccc([N+](=O)[O-])cc3)CC2)cc1	11

# Results in sequence from the list:
# Calb biofilm kill for entries 70–73: -6, 26, 16, 6

# A different layout for part of the listing above.
(67) CCN(CC)CCn1c2ccccc2c2nc3ccc([N+](=O)[O-])cc3cc21
- Calb biofilm kill: 14

(53) O=C(O)CNS(=O)(=O)c1cccc(Cl)c1
- Calb biofilm kill: 10

# Returning to the listing; the 3 compounds before the break are reprinted first.
No.	structure	Calb biofilm kill
73	CCCc1nnc(SCC(=O)N2CCOCC2)n1C	6
74	COc1cc2cc(Oc3ccc4ccc(=O)oc4c3)c(=O)oc2cc1OC1OC(COC(=O)CC(C)(O)CC(=O)O)C(O)C(O)C1O (stereo unspecified)	11
75	CCCCc1ccc(NC(=O)C(=O)NCCN2CCN(Cc3ccc([N+](=O)[O-])cc3)CC2)cc1	11
76	CC(=O)/C(N=Nc1cc(C)ccc1O)=C(\C)O	30
77	O=C1OCCC1Sc1nnc(-c2ccccc2Br)n1Cc1ccccc1 (stereo unspecified)	10
78	CCSc1nc2ccc(OC)cc2cc1C#N	-10
79	CN1C(C(=O)NCc2ccccc2)CC2Cn3c(nc4cc(Cl)c(Cl)cc43)C21 (stereo unspecified)	13
80	Cc1ccc2nc(-c3ccncc3)c(Nc3ccccc3)n2c1	11
81	Cc1cccc(C)c1C(=NCCCN(C)C)c1ccccc1	21
82	O=C(O)c1cc(-c2ccco2)nc2cc3ccccc3cc12	13
83	Cc1ccc(CSCCNS(=O)(=O)c2ccccc2)cc1	13
84	Cc1cc2nc(CS)[nH]c2cc1C	20
85	O=C(OCc1nnc(-c2ccccc2)o1)C1CC(=O)N(Cc2ccco2)C1 (stereo unspecified)	8
86	CSc1ccc(CNCC(O)c2ccccc2)cc1 (stereo unspecified)	-7
87	COCCn1cnnc1SCC(=O)Nc1ccc(Br)cc1F	6
88	CCN(CC)S(=O)(=O)c1ccc(N2CCN(CCO)CC2)nc1	8
89	CC(C)(C)C1(C)OC(=O)C(=Cc2ccc(OCC(=O)Nc3ccccc3)cc2)C(=O)O1 (stereo unspecified)	10
90	Cc1nn(CCCC(=O)NCc2ccc(Cl)cc2)c(C)c1[N+](=O)[O-]	16
91	O=C(N/N=C/c1ccccn1)c1cc(-c2ccccc2Cl)n[nH]1	8
92	Cc1nc(N2CCCCC2)c2c(C)c(C(=O)Nc3cccc(C(F)(F)F)c3)sc2n1	14
93	COC(=O)C1=C(C)NC(C)=C(C(=O)OC)C1C(=O)OCC(=O)Nc1ccc(C(C)=O)cc1	-10
94	CCC1c2ccc(C)n2CCN1C(=O)Nc1ccccc1OC (stereo unspecified)	4
95	O=C(/C=C/c1ccc(F)cc1)NCCNC(=O)/C=C/c1ccc(F)cc1	13
96	O=C(Nc1ccc2oc(=O)ccc2c1)c1cc([N+](=O)[O-])ccc1N1CCOCC1	4
97	NCC(=O)Nc1ccc(Br)cc1	10
98	COc1cccc(/C=N/NC(=O)CSc2ccccc2C)c1O	23
99	Cn1c(-c2ccccc2)c(/C=N/NC(=O)c2cccnc2)c2ccccc21	16
100	COc1ccc(/C=N/NC(=O)CNC(=O)COc2ccccc2)cc1	1
101	CC(Oc1ccc(Br)cc1)C(=O)Nn1c(=S)[nH]c2ncccc2c1=O (stereo unspecified)	19
102	COc1ccc(/C=C/c2ccccc2)cc1[C@H]1[C@H]2C=CC[C@@H](C)[C@@H]2C(=O)N1Cc1ccccc1	-1
103	Nc1nc(-c2cccnc2)nc2sc3c(c12)CCCC3	9
104	Cc1ccc(Cl)cc1OCC(=O)NCCOC(=O)Nc1sc(=S)n(C)c1C	20
105	Cc1ccc(CN2CCNC(=O)C2CC(=O)NCC(F)(F)F)o1 (stereo unspecified)	15
106	Cc1cccc(C)c1-n1cccc1/C=C1/C(=N)N2C(=NC1=O)SN=C2S(C)(=O)=O	20
107	CCn1cnc2cc(NCc3nc4ccccc4n3Cc3ccccc3)ccc21	7
108	NS(=O)(=O)c1ccc(NC(=S)NC2CCCC2)cc1	8
109	O=C(OC(c1ccc(NS(=O)(=O)c2ccccc2)cc1)(C(F)(F)F)C(F)(F)F)c1ccccc1	8
110	Cn1cc(CCNC(=O)CC2C(=O)NCCN2CC(c2ccccc2)c2ccccc2)cn1 (stereo unspecified)	12
111	O=c1[nH]cnc2ccc([N+](=O)[O-])cc12	8
112	C/C(CC(=O)Nc1ccc([N+](=O)[O-])cc1)=N/NC(=O)C1CC12CCC2 (stereo unspecified)	13
113	COc1ccc(NC(=O)CN2C(=O)C(C)SC(C)C2=O)cc1 (stereo unspecified)	23
114	Cc1cccc(C(=O)N[C@H](C(=O)OCC(=O)NC(=O)c2cccn2C)C(C)C)c1	6
115	C=CCn1c(SCC(=O)Nc2nnc(C)s2)nnc1-c1cccnc1	20
116	COc1ccc(Oc2ccc(/C=C/C(=O)c3ccc(O)cc3)cc2[N+](=O)[O-])cc1	18
117	Cc1ccc(/C=C/C(=O)Nc2ccc([N+](=O)[O-])c(NC(=O)/C=C/c3ccc(C)o3)c2)o1	8
118	Cc1cccc(NC(=O)CSc2nsc(SCC(=O)Nc3cccc(C)c3)c2C#N)c1	17
119	Cc1ccc(NC(=O)Cc2ccc(-n3cccc3)cc2)c(C)c1	9
120	C/C(=N\NC(=O)c1cc(C(C)(C)C)[nH]n1)C12CC3CC(CC(C3)C1)C2	23
121	CC(OC(=O)c1cc(S(=O)(=O)N(C)c2ccccc2)ccc1Cl)C(=O)Nc1ccc2c(c1)OCCO2 (stereo unspecified)	12
122	CCSc1nnc(NC(=O)[C@@H](NC(=O)c2ccccc2)C(C)C)s1	8
123	COc1ccc(N2CCN(c3ccc(N4C(=O)CC(C)C4=O)cc3[N+](=O)[O-])CC2)cc1 (stereo unspecified)	15
124	Cc1cc(NC(=O)C2CC2)ncc1NC(=O)c1ccccn1	1
125	CCOc1cc(/C=N/Nc2cccc(C(=O)O)c2)ccc1OCC(=O)N1CCCCC1	17
